NPYLR7 agonist: mosquito NPYLR7 agonism; HEK293T NPYLR7/Galpha15, GCaMP6s calcium fluorescence; activation, % at 10 µM; actives 0.15% (n = 270,000); AID 1259423; in the data active means activation above about 40%;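 further: 0% = vehicle and 100% = reference agonist at the receptor; some compounds past the cut are filed as inactive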
NPYLR7 agonist max-min: also measured in NPYLR7 agonist; calls as there; activation, %; measured here: Max-Min RFU normalised activation; some inactives read as strong as hits;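 span of the calcium signal over five minutes; 0% = vehicle and 100% = native peptide agonist; compound fluorescence can raise it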
* hit, by the source's call; & = joins results of further samples. A portion of the library (hit frequency here may not be typical).

canonical_smiles: CCN(CC)c1ccc(C2NCCc3[nH]cnc32)c(O)c1 (stereo not given)
  NPYLR7 agonist: 8.6	NPYLR7 agonist max-min: 3.0

canonical_smiles: CNC1CCOCC1
  NPYLR7 agonist: 1.6	NPYLR7 agonist max-min: 0.6

canonical_smiles: CCc1cccc2c(C=C(C#N)C#N)c[nH]c12
  NPYLR7 agonist: 7.4	NPYLR7 agonist max-min: 3.9

canonical_smiles: CCOC(=O)CN1C(=O)C2(c3ccccc31)c1c(cc(C)[nH]c1=O)OC(=N)C2C(=O)OCC (stereo not given)
  NPYLR7 agonist: -1.3	NPYLR7 agonist max-min: -4.0

canonical_smiles: COc1cc(C=C2C(=O)N(C)C(=O)N(C)C2=O)cc(Br)c1O
  NPYLR7 agonist: -10.9	NPYLR7 agonist max-min: -18.1

canonical_smiles: C=CCN1CC[C@]23c4c5ccc(O)c4O[C@@H]2/C(=N\N=C2\CC[C@@]4(O)C6Cc7ccc(O)c8c7[C@@]4(CCN6CC=C)[C@@H]2O8)CC[C@@]3(O)C1C5
  NPYLR7 agonist: 4.4	NPYLR7 agonist max-min: -45.8

canonical_smiles: O=C1CN=C(c2ccccc2)c2cc([N+](=O)[O-])ccc2N1
  NPYLR7 agonist: -9.8	NPYLR7 agonist max-min: -13.2

canonical_smiles: CCOCCN1CCN(Cc2nnc3n2-c2ccc(Cl)cc2C(c2ccccc2Cl)=NC3)CC1
  NPYLR7 agonist: -7.4	NPYLR7 agonist max-min: -8.3

canonical_smiles: COC1=CCC2([N+](=O)[O-])CN(C)CC1([N+](=O)[O-])C2 (stereo not given)
  NPYLR7 agonist: 5.0&5.2	NPYLR7 agonist max-min: 9.8&5.0

canonical_smiles: CCC(=O)Nc1ccc(OCC(=O)N2CCN3CCNC(=O)C3C2)cc1 (stereo not given)
  NPYLR7 agonist: -4.4	NPYLR7 agonist max-min: -5.3

canonical_smiles: Cc1ccc(-c2[nH]ncc2CNC(C)Cc2ncccc2C)cc1C (stereo not given)
  NPYLR7 agonist: -6.6	NPYLR7 agonist max-min: -10.6

canonical_smiles: CCC(=O)c1c(O)n(C)c(=O)n(C)c1=O
  NPYLR7 agonist: 9.9	NPYLR7 agonist max-min: 12.0

canonical_smiles: CN(C)c1ccc2c(c1)N=C(c1ccco1)OP2(=S)N1CCCCCC1 (stereo not given)
  NPYLR7 agonist: -9.5	NPYLR7 agonist max-min: -13.1

canonical_smiles: COCC1N(Cc2ccccn2)C2CCC1(O)CC2 (stereo not given)
  NPYLR7 agonist: 28.4	NPYLR7 agonist max-min: 30.7

canonical_smiles: c1ccc(C2=NP(N3CCOCC3)(N3CCOCC3)=NC(N3CCOCC3)=N2)cc1
  NPYLR7 agonist: -5.6	NPYLR7 agonist max-min: -6.8

Of the compounds above, these contain a halogen:
canonical_smiles: COc1cc(C=C2C(=O)N(C)C(=O)N(C)C2=O)cc(Br)c1O
  NPYLR7 agonist: -10.9	NPYLR7 agonist max-min: -18.1

canonical_smiles: CCOCCN1CCN(Cc2nnc3n2-c2ccc(Cl)cc2C(c2ccccc2Cl)=NC3)CC1
  NPYLR7 agonist: -7.4	NPYLR7 agonist max-min: -8.3

Single records (already shown). Values in the order: NPYLR7 agonist	NPYLR7 agonist max-min
`CN(C)c1ccc2c(c1)N=C(c1ccco1)OP2(=S)N1CCCCCC1` (stereo not given) as listed: -9.5	-13.1
`c1ccc(C2=NP(N3CCOCC3)(N3CCOCC3)=NC(N3CCOCC3)=N2)cc1` as listed: -5.6	-6.8
`COC1=CCC2([N+](=O)[O-])CN(C)CC1([N+](=O)[O-])C2` (stereo not given) as listed: 5.0&5.2	9.8&5.0
`COc1cc(C=C2C(=O)N(C)C(=O)N(C)C2=O)cc(Br)c1O` as listed: -10.9	-18.1

Later entries:
canonical_smiles: CC(C)N(CC(=O)Nc1nc(CC(=O)N2CCN(Cc3ccc4c(c3)OCO4)CC2)cs1)C(=O)c1ccccc1
  NPYLR7 agonist: -11.2	NPYLR7 agonist max-min: -3.4

canonical_smiles: CCC(NC)c1nc2ccccc2c(=O)n1-c1ccc(F)cc1 (stereo not given)
  NPYLR7 agonist: 1.7	NPYLR7 agonist max-min: 8.6

canonical_smiles: CCCN(CCC)CCc1c[nH]c2ccc(C(N)=O)cc12
  NPYLR7 agonist: -10.0	NPYLR7 agonist max-min: -3.9

canonical_smiles: CC1CCCC(O)CCCC=Cc2cc(O)cc(O)c2C(=O)O1 (stereo not given)
  NPYLR7 agonist: 19.8	NPYLR7 agonist max-min: 9.8

canonical_smiles: COC1C=CC(CNC(=O)C2C3c4ccccc4C(c4ccccc43)C2C(=O)O)(OC)O1 (stereo not given)
  NPYLR7 agonist: 0.8	NPYLR7 agonist max-min: 40.0

canonical_smiles: CN1CCN2CCN(C(=O)c3ccc4nnnn4c3)CC2C1=O (stereo not given)
  NPYLR7 agonist: -1.1	NPYLR7 agonist max-min: 1.1

canonical_smiles: CC(=O)O[C@H]1C[C@H](O[C@H]2[C@@H](O)C[C@H](O[C@H]3[C@@H](O)C[C@H](O[C@H]4CC[C@@]5(C)[C@H](CC[C@]6(C)[C@]5(C)C[C@@H](O)[C@]5(C)[C@@H](C7=CC(=O)OC7)CC[C@@]56O)C4)O[C@@H]3C)O[C@@H]2C)O[C@H](C)[C@H]1O[C@@H]1O[C@H](CO)[C@@H](O)[C@H](O)[C@H]1O
  NPYLR7 agonist: -0.4	NPYLR7 agonist max-min: -4.1

canonical_smiles: C=CCn1c(O)c(C=Nc2ccc(F)cc2)c(=O)[nH]c1=O
  NPYLR7 agonist: 12.0	NPYLR7 agonist max-min: 5.8

canonical_smiles: CC(C)(C)c1csc(CNC(=O)NCc2ccc(Cl)nc2)n1
  NPYLR7 agonist: 6.8	NPYLR7 agonist max-min: 4.1

canonical_smiles: Cc1nc(N)nc(C)c1CC(=O)N1CC[C@@H]2CC[C@H](C1)N2C
  NPYLR7 agonist: 8.8	NPYLR7 agonist max-min: 4.5

canonical_smiles: CS(=O)(=O)c1ccc(S(=O)(=O)N2CCN(CCOC(c3ccc(F)cc3)c3ccc(F)cc3)CC2)cc1
  NPYLR7 agonist: 24.3	NPYLR7 agonist max-min: 25.3

canonical_smiles: Cc1ncc2n1-c1ccc(Cl)cc1C(c1ccccc1F)=NC2
  NPYLR7 agonist: -11.5	NPYLR7 agonist max-min: -15.2

canonical_smiles: Cc1ccc2oc(C3NCCc4[nH]cnc43)c(C)c2c1 (stereo not given)
  NPYLR7 agonist: -1.3	NPYLR7 agonist max-min: -1.0

canonical_smiles: O=C(c1nn(Cc2ccc(OC(F)F)cc2)c2ccccc12)N1CCN(C(=O)C2CCCO2)CC1 (stereo not given)
  NPYLR7 agonist: 1.8	NPYLR7 agonist max-min: 14.8

canonical_smiles: O=C(Nc1ccncc1)c1cccn(Cc2ccccc2F)c1=O
  NPYLR7 agonist: 16.4	NPYLR7 agonist max-min: 7.2

canonical_smiles: C[C@]12CC[C@H](O)C[C@H]1CC[C@@H]1[C@@H]2CC[C@]2(C)[C@@H](C3=CC(=O)OC3)CC[C@]12O
  NPYLR7 agonist: -3.9	NPYLR7 agonist max-min: -7.7

A different layout for some results above:
mol	NPYLR7 agonist	NPYLR7 agonist max-min
O=C1CN=C(c2ccccc2)c2cc([N+](=O)[O-])ccc2N1	-9.8	-13.2
COCC1N(Cc2ccccn2)C2CCC1(O)CC2 (stereo not given)	28.4	30.7

Source: PubChem BioAssay
